Tgondii IFNg: inhibitors of Toxoplasma gondii growth with IFN-gamma; Toxoplasma gondii growth in IFN-gamma-treated host cells; hits give low values; reference of the scale not given here; activity change, negative = inhibition, %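 (about 20 µM by stock and volumes)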; 3.8% of 69,000 active;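 active = below -70%; inconclusive = fit judged invalid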;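 also: host cells are HeLa cells infected with Toxoplasma gondii; parasite growth read as luciferase light; one replicate is shown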
* marks the source's active call; other numbers are inactive results; i = inactive; ? = inconclusive; & = joins results of further samples. The list is partial; rates above refer to the full screens.

canonical_smiles	Tgondii IFNg
CN1C(=O)c2cc(NC(=O)Nc3ccc(Cl)cc3)ccc2OC[C@H]2O[C@@H](CC(=O)NCCN3CCCCC3)CC[C@@H]21	15
CN(CC(=O)Nc1cccc(-c2nc3ccccc3s2)c1)C1CCS(=O)(=O)C1 (stereo not drawn)	177
COCC(=O)N1C[C@@H](C)[C@H](OC)CN(C)C(=O)c2ccc(NC(=O)Nc3cccc(F)c3)cc2OC[C@H]1C	133
CCNc1ncc(CN2CCCOc3c(cccc3OC)C2)cn1	0
Cc1ccc2c(c1)NC1(CCN(S(=O)(=O)c3ccccc3)CC1)c1cccn1-2	15
CCn1c(CC2CCNCC2)nn(Cc2cccc(-n3cccn3)c2)c1=O	12
CCS(=O)(=O)N1C[C@H](N(C)Cc2ccco2)C2OCCCC21 (stereo partly drawn)	4
Cc1ccc2c(c1)N(C(=O)Cn1c(=O)cc(C(=O)N3CCCC3)c3ccccc31)CCO2	1
O=C1CCCN1CC1CCN(C(=O)c2ccc(NCC3CCOC3)nc2)CC1 (stereo not drawn)	-5
COc1ccc(S(=O)(=O)N2CCN(C(=O)C3OCCc4ccccc43)CC2)cc1 (stereo not drawn)	-1
CC(C)C(NC(=O)OC(C)(C)C)C(=O)NC(c1ccccc1)c1ccccc1 (stereo not drawn)	1
O=C(NCC[C@@H]1CC[C@H](NS(=O)(=O)c2ccc(F)cc2)[C@@H](CO)O1)c1ccc2c(c1)OCO2	-13

Part of the list above in a different format:
CC(C)C(NC(=O)OC(C)(C)C)C(=O)NC(c1ccccc1)c1ccccc1 (stereo not drawn)
  Tgondii IFNg: 1
COCC(=O)N1C[C@@H](C)[C@H](OC)CN(C)C(=O)c2ccc(NC(=O)Nc3cccc(F)c3)cc2OC[C@H]1C
  Tgondii IFNg: 133
CN1C(=O)c2cc(NC(=O)Nc3ccc(Cl)cc3)ccc2OC[C@H]2O[C@@H](CC(=O)NCCN3CCCCC3)CC[C@@H]21
  Tgondii IFNg: 15
Cc1ccc2c(c1)N(C(=O)Cn1c(=O)cc(C(=O)N3CCCC3)c3ccccc31)CCO2
  Tgondii IFNg: 1

The listing picks up, repeating the four entries before the break.
canonical_smiles	Tgondii IFNg
O=C1CCCN1CC1CCN(C(=O)c2ccc(NCC3CCOC3)nc2)CC1 (stereo not drawn)	-5
COc1ccc(S(=O)(=O)N2CCN(C(=O)C3OCCc4ccccc43)CC2)cc1 (stereo not drawn)	-1
CC(C)C(NC(=O)OC(C)(C)C)C(=O)NC(c1ccccc1)c1ccccc1 (stereo not drawn)	1
O=C(NCC[C@@H]1CC[C@H](NS(=O)(=O)c2ccc(F)cc2)[C@@H](CO)O1)c1ccc2c(c1)OCO2	-13
COCCc1nnc(NC(=O)c2oc3ccc(C)cc3c2C)s1	424
COc1ccc(C#Cc2ccc3c(c2)[C@@H]2[C@@H](CCN2S(=O)(=O)c2ccccc2C)[C@H](CO)N3C)cc1	5
COc1cccc(-c2nc(Cn3ccn4nc(-c5ccc(Cl)cc5)cc4c3=O)c(C)o2)c1OC	5
COc1ccc(C(=O)Nc2ccc3c(c2)C(=O)N(C)[C@@H]2CC[C@H](CC(=O)NCC4CC4)O[C@H]2CO3)cc1	16
COCC1CN(S(=O)(=O)c2ccc(C)cc2)Cc2ccnn2C1 (stereo not drawn)	-14
CCc1ccc(NC(=O)C(=O)NCCc2csc(-c3cccc(F)c3)n2)cc1	10
COc1cc(NCc2cn3c(n2)CN(C(=O)C2CC2)CC3)ncn1	27
COCC(=O)N1[C@@H]2CNc3ccccc3[C@@H]2[C@@H]1CO	3
Cc1oc(-c2ccccc2)nc1Cn1nnc(-c2nc(-c3ccc(OC(F)(F)F)cc3)no2)c1C	-40
Cc1nn(CC(=O)N2[C@@H]3CC[C@H]2CNC(=O)C3)c(=O)c2ccccc12	-1
CCc1ccc(NC(=O)Cn2c(=O)cc(-c3nc(C(C)C)no3)c3ccccc32)cc1	-12
COc1ccc(Nc2nc(-c3nnc(-c4ccc(Cl)cc4)o3)nc3ccccc23)cc1	191

canonical_smiles	Tgondii IFNg
O=C1CSC(=O)N1CCN1C(=O)CSC1=O	18
COc1ccc(CC(=O)NCCc2csc(-c3cccc(F)c3)n2)cc1	-1
CCOC(=O)c1sc(SCC(=O)c2ccc(Cl)cc2Cl)nc1C	54
O=C(c1cc2cc(F)ccc2[nH]1)N1CCC(CO)(CCOc2ccccc2)CC1	-6
Cc1ccc(C2(O)CCN(C(=O)CC3C(=O)Nc4ccc(C)cc43)CC2)nc1 (stereo not drawn)	0
COc1cccc(Cn2c(C)c(CNCCc3c[nH]c4ccccc34)c(C(=O)O)c2C)c1	5
O=C(CCn1cncn1)N1CCC(Cc2nncn2-c2ccccc2)CC1	6
O=C([C@H]1[C@H](CO)[C@H]2Cn3c(cccc3=O)[C@H]2N1C(=O)C1CCCCC1)N1CCOCC1	-17
Cc1nc(C)c(CC(=O)N(C)C(C)c2ccc(F)cc2)c(=O)[nH]1 (stereo not drawn)	17
Cc1ccc(NC(=O)OC(C)CNS(=O)(=O)c2ccc(C)cc2)cc1 (stereo not drawn)	50
COc1ccc(NC(=O)c2c(O)c3cccnc3n(-c3cccc(F)c3)c2=O)cc1F	66
COC(=O)c1ccc(Oc2cc(Cl)cc(Cl)c2)o1	27

canonical_smiles	Tgondii IFNg
COc1ncccc1C(=O)N1CCC(O)(c2ccc3nc(C)ccc3c2)CC1	-7
COc1ccc2c3c(n(C)c2c1)[C@@H](CO)N(Cc1ccccc1)CC31CN(C(=O)c2ccccc2F)C1	-35
Cc1[nH]c2ccccc2c1CC(=O)NCc1nnc(-c2ccccc2)o1	13
O=C(CC(F)(F)F)N1C[C@@H]2[C@H](c3ccccc31)[C@@H](CO)N2C(=O)c1ccncc1	3
O=C1CCc2cc(S(=O)(=O)NCCCc3ccccc3)cc3c2N1CCC3	-70
O=C(NC1CC1)c1cc2n(n1)CCN(Cc1ccnn1-c1ccccc1)C2	34
Cc1noc2nc(C3CCCN(C(=O)CCc4ccccc4)C3)cc(C(F)F)c12 (stereo not drawn)	-93*
O=C(NCc1coc(-c2ccccc2)n1)C1CC2(CCNCC2)CN1 (stereo not drawn)	7
CN=C1Sc2nc3c(cc2CN1C1CCCCC1)c(C(C)(C)C)nn3-c1ccccc1	-85*
CCn1c(=O)c(-c2nc(-c3cccc(Cl)c3)no2)c(O)c2ccc(F)cc21	-8
NC(=O)[C@@H](CCC(F)(F)F)N(Cc1ccc(-c2ncon2)cc1F)S(=O)(=O)c1ccc(Cl)cc1	-21
CCc1nccn1CCC(=O)N1CCC2(CC1)c1ccccc1[C@@H](N)[C@@H]2O	19

canonical_smiles	Tgondii IFNg
NC1CCc2nc3ccccc3c(=O)n2C1c1ccsc1 (stereo not drawn)	14
CC(C)CCn1nc(C(=O)N2CCOCC2)c2c1CCN(C(=O)CSc1ccccc1)C2	-15
C/C=C/c1ccc([C@@H]2[C@@H](CO)N(C(=O)NC(C)C)C23CN(Cc2ccc(OC)cc2)C3)cc1	63
Cc1ncc(C(=O)N2CCC(O)(CN(C)C)C2)c(-c2ccccc2)n1 (stereo not drawn)	-5
COc1cccc(CNc2nc(-c3nnc(-c4cccc(Cl)c4)o3)nc3ccccc23)c1	-86*
CCN(CC)S(=O)(=O)c1ccc2c3c(cccc13)C(=O)S2	-24
Cn1cc(CN2CCCn3cnc(COCCO)c3C2)cn1	-30
Cc1cc(C(=O)Nc2ccc3c(c2)C(=O)N(C)[C@H]2CC[C@H](CC(=O)NCc4ccc(-c5ccccc5)cc4)O[C@@H]2CO3)no1	-35
NC[C@H]1O[C@H](O[C@H]2[C@H](O)[C@@H](O[C@H]3O[C@H](CO)[C@@H](O)[C@H](N)[C@H]3O)[C@H](N)C[C@@H]2N)[C@H](N)C[C@@H]1O	21&2
CCOC(=O)c1nc(N2CCOCC2)c2ccccc2n1	93
C[C@H](CO)N1C[C@H](C)[C@H](CN(C)Cc2ccc3c(c2)OCO3)Oc2ccc(NC(=O)C3CCCCC3)cc2C1=O	-5
COc1ccc(CNC(=O)NC2CCCN(S(=O)(=O)c3ccc(C)cc3)C2)cc1 (stereo not drawn)	14

canonical_smiles	Tgondii IFNg
C[C@@H](NC(=O)C[C@H]1C=C[C@@H](NS(=O)(=O)c2cccc(F)c2)[C@H](CO)O1)c1ccccc1	-24
C=CCN1CCN(c2ncc(C)c(N(C)C)n2)CC1	-5
CCOC1CCN(CC(=O)Nc2c(C)nn(-c3ccc(C)c(C)c3)c2C)CC1	-2
Nc1nc2ccccc2n1CCN1CCOCC1	17
CC(=O)NC[C@H]1[C@@H](c2ccc(C#Cc3ccccc3F)cc2)[C@@H](CO)N1C(C)=O	5
COc1ccc(NC(=O)c2cc(C(C)C)[nH]n2)c(NC(=O)C(C)C)c1	3
Cc1ccccc1-c1cnc2c(c1)C(=O)N([C@H](C)CO)C[C@@H](C)[C@H](CN(C)Cc1ccccc1F)O2	?
COCC(=O)N1C[C@@H]2OCCN(c3ncccn3)[C@H]2C1	5
NC(=O)C1(N2CCCCC2)CCN(c2ncc(NC(=O)c3cccc(Cl)c3)cc2C(=O)O)CC1	2
Cc1ccc(NC(=O)N2CCC(c3nc(C(=O)N(C)C)c(C)o3)CC2)cc1F	31
COC(=O)CC(=O)c1cnc(C)nc1C	-29
CC(C)CNC(=O)[C@H]1C[C@@H]2CN(C(=O)NCCc3ccccc3)C[C@H]1O2	-2

| canonical_smiles | Tgondii IFNg |
| --- | --- |
| N#Cc1ccsc1NS(=O)(=O)c1ccc(OC(F)(F)F)cc1 | -47 |
| CCS(=O)(=O)NCC[C@H]1CC[C@H](NS(=O)(=O)c2ccccc2C)[C@@H](CO)O1 | -34 |
| CCc1nc(-c2c(-c3ccccc3)ncn2Cc2csc(C)n2)c(C)[nH]1 | -24 |
| Cc1cnc(C(=O)NCC2OCCc3cn(C)nc32)cn1 (stereo not drawn) | i |
| CN(Cc1cc(C(C)(C)C)n[nH]1)C(=O)c1ccn2nnnc2c1 | -4 |
| O=[N+]([O-])c1cccc2c(Br)[nH]nc12 | -30&-60 |
| O=C(CCN1CCCCC1)N[C@@H]1CC[C@@H](CC(=O)N2CCC(Cc3ccccc3)CC2)O[C@H]1CO | -40 |
| Oc1ccccc1-c1cc(C(F)(F)F)n(-c2nc(-c3ccc(Cl)cc3)cs2)n1 | -66 |
| O=C(O)Cc1cccc(-c2cccc3c2CCNC3)c1 | 10 |
| CC(C)N1CCOCC2(CCCN(C(=O)c3c[nH]c4ccccc34)C2)C1 (stereo not drawn) | -8 |
| O=C(Cc1ccc(F)cc1)NCCc1csc(-c2ccccc2)n1 | i |
| CCn1c(C2CCN(C(=O)CCc3cn4ccccc4n3)CC2)nn(C)c1=O | 3 |
| C[C@@H]1CN([C@H](C)CO)C(=O)c2ccccc2-c2ccccc2CO[C@@H]1CN(C)S(=O)(=O)c1cccc(C#N)c1 | 44 |
| O=C(CC1C(=O)NCCN1C1CCCC1)Nc1cccc(C(=O)N2CCOCC2)c1 (stereo not drawn) | 11 |
| CN(C)CC(=O)N1[C@H](C#N)[C@H](c2ccc(-c3cccc(C(=O)N(C)C)c3)cc2)[C@H]1CO | 4 |
| CCCCCCCC/C=C\CCCCCCCC(=O)NCCO | 16 |
| NC(=O)COc1ccc(CN2CCNC(C(=O)NC3CC3)C2)cc1Cl (stereo not drawn) | -45 |
| O=C(C1COCCN1)N1CCOc2c(O)cc(-c3cccc(Cl)c3)cc2C1 (stereo not drawn) | 2 |
| C=CCC1(CC=C)CCCN1C(=O)c1cc(C)c(C)c(S(N)(=O)=O)c1 | -19 |
| COc1ncc(C2(O)CCN(S(=O)(=O)c3ccc(C)cc3)CC2)c(OC)n1 | -45 |

| canonical_smiles | Tgondii IFNg |
| --- | --- |
| COc1ccccc1NC(=O)c1cc(C2CCCN(Cc3ccncc3)C2)no1 (stereo not drawn) | -41 |
| CNC(=O)c1sc2ccccc2c1CC1CCCCN1Cc1c(C)nc2sccn12 (stereo not drawn) | -41 |
| c1ccc(CN2CCCN(c3nc4c(c5nncn35)CCCC4)CC2)cc1 | -8 |
| COc1ccc(CCc2nc3cc(-c4c(C)noc4C)ccc3n2C[C@H](C)N2CCOCC2)cc1Cl | 9 |
| O=C1CCc2cc(S(=O)(=O)Nc3ccc4c(c3)OCO4)cc3c2N1CCC3 | 125 |
| COCC(=O)N1CCc2c([nH]c3ccccc23)C1c1ccc(C)cc1 (stereo not drawn) | 272 |
| C=C1CCC2[C@](C)(CO)[C@H](O)CC[C@@]2(C)[C@@H]1C/C=C1/C(=O)OC[C@H]1O (stereo partly drawn) | 11 |
| C[C@H]1CN([C@@H](C)CO)C(=O)c2c(c3ccccc3n2C)-c2ccccc2CO[C@H]1CN(C)C | -18 |
| Cc1ccc(-c2n[nH]c(CNC(=O)c3cccnc3)n2)cc1 | -9 |
| COc1ccc(-c2cnccc2N)cn1 | 6 |
| Cc1nc2sc(C(=O)O)c(C)c2c(=O)[nH]1 | 186 |
| O=C(c1ccco1)N1Cc2nccn2CC(Cn2cncn2)C1 (stereo not drawn) | 201 |
| O=c1[nH]c(N2CCOCC2)nc2c1CCN(Cc1ccc(O)cc1)C2 | 37 |
| COc1ccc(CNC(=O)c2cn3c(n2)CN(CC(C)C)CC3)cc1OC | 8 |
| COc1ccc(NC(NC(=O)c2ccccc2)C(=O)c2cccs2)cc1 (stereo not drawn) | 20 |
| CSc1cccc(NC(=O)c2ccc(-c3nc(CN4CCN(c5ccccc5)CC4)c(C)o3)cc2)c1 | -33 |
| Cc1noc(C)c1NC(=O)Nc1ccc2c(c1)C(=O)N([C@@H](C)CO)C[C@H](C)[C@@H](CN(C)S(=O)(=O)c1cccs1)OCCCC[C@@H](C)O2 | 337 |
| CCCc1cc(CN(C)Cc2nc[nH]c2C)[nH]n1 | -5 |
| CCOC(=O)C1CCCN(Cc2nc(Cc3cccc(F)c3)no2)C1 (stereo not drawn) | -38 |
| O=S(=O)(NCCc1cccs1)c1ccc(Br)cc1 | -19 |

| canonical_smiles | Tgondii IFNg |
| --- | --- |
| O=C(Cn1ncc2c(N3CCOCC3)ncnc21)NCCC1=CCCCC1 | 8 |
| O=S(=O)(c1ccccc1)N1[C@H](CO)[C@@H]2c3ccccc3NC[C@@H]21 | -13 |
| COCCN1CCc2ncc(CN(C)Cc3ccco3)n2CC1 | -15 |
| CC12CN3CC(C)(CN(C1)C3(C)CSc1c[nH]c3ccccc13)C2=O (stereo not drawn) | 17 |
| COC(=O)c1cc(C2CC2)nc2c1c(=O)n(Cc1nc(-c3ccccc3Cl)oc1C)c(=O)n2C | -7 |
| COCCN1CCC(c2[nH]cnc2-c2ccccc2)CC1 | -6 |
